# D2 agonist: Beta-Arrestin HTS for Positive Allosteric Modulators of the Human D2 Dopamine Receptor: Agonists; DiscoveRx PathHunter D2 beta-arrestin, luminescence, 90 min; 100% = 57 uM dopamine signal; activation, % (concentration not given with the values); hit rate 0.084% among 360,000; AID 624465, 2012; in the data active = activation above about 40%; inconclusive = about 15% to 40%; inactive = below about 15%; further: compound concentration not given in the record; the text of the record calls up to 30% inactive
# Target sequence (P14416 whole entry, looked up): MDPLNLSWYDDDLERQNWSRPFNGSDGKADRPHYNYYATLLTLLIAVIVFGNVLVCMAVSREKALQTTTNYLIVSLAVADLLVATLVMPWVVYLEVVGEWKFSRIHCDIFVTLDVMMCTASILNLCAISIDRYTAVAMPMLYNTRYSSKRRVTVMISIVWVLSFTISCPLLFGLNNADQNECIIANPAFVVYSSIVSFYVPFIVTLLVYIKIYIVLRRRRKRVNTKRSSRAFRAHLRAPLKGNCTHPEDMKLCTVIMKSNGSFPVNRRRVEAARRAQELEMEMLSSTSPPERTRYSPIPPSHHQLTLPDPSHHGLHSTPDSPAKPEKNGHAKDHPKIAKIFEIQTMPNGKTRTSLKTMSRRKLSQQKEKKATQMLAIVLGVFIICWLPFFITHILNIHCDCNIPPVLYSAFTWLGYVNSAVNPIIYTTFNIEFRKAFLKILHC
#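 Agonist mode: compounds alone added to overnight-plated D2 PathHunter cells for 90 min at 37 C, with 57 uM final dopamine (EC100) defining full response. Beta-arrestin recruitment detected by chemiluminescent reagent, read after 1 h at ambient temperature.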
# PINK1 modulator: A Quantitative High throughput Screen to Identify Chemical Modulators of PINK1 Expression; PINK1 immunofluorescence, high-content cytometry, 24 h; Potency, µM (doses to about 76.6 µM), for the others: at the top dose activation (PINK1 increase), usual class: activators; hit rate 0.2% among 410,000; active = well fitted activation curve with a large enough effect; inconclusive = small, poorly fitted or top-dose-only effect; inactive = flat fitted curve, though single readings scatter; cell line not stated here;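 further: potency means the concentration at half of the fitted maximal effect; % of control where 0% means no effect; nearly all actives have a fitted effect of over 65% in size; a mitochondrial uncoupler was the plate control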
#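 Cells are seeded, rested 12 hours, then given compound at five concentrations or DMSO for 24 hours. After fixation, blocking and antibody staining, PINK1 amount and mitochondrial localization are scored; CCCP serves as control.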
# D2 PAM: Beta-Arrestin HTS for Positive Allosteric Modulators of the Human D2 Dopamine Receptor: Potentiators; D(2) dopamine receptor (Homo sapiens), P14416; DiscoveRx D2 beta-arrestin cells, luminescence, 90 min; 100% = 57 uM dopamine signal; potentiation, % (concentration not given with the values); hit rate 0.23% among 360,000; AID 624464, 2012; active = potentiation of 50% or more; inconclusive = 30% to 50%; inactive = 30% or less;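 further: compound concentration not given in the record; tested on top of an EC20 dose of dopamine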
#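 D2 cells co-treated with compound plus 50 nM dopamine (EC20) for 90 min at 37 deg C to detect potentiation. Beta-arrestin recruitment was read as enzyme-fragment luminescence after 1 h at ambient temperature. Full response was set by 57 uM dopamine.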
# CtBP-E1A inh: qHTS Assay for Inhibitors of the CtBP/E1A Interaction. activity change, % (concentration not given with the values). hit rate 0.49% among 340,000. AID 651724, 2012. AlphaScreen GST-E1A/His-CtBP binding, 1536-well; stronger effect = lower value; control for the full effect not named in the record; in the data active means activity change below about -65%; inconclusive means about -30% to -65%; inactive means above about -30%; further: on the % scale 0 is the no-effect control and ±100 the full control effect
#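 Protein mix (5X: 125 nM each GST-E1A, His-CtBP) was incubated with pinned compound 2 h at 37 deg C in dark, in 50 mM Tris pH 8.0 buffer with 300 mM NaCl. Glutathione donor and nickel acceptor beads followed; AlphaScreen signal read after 1 h.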
# TRPV1 PAM: HTS Assay for Compounds that Act as Potentiators of the Vanilloid Receptor 1; TRPV1-expressing cells, Fluo-8 calcium influx, capsaicin EC20 potentiation; host cell line not named in the record; control for the full effect not named in the record; potentiation, % at 8.33 µM; hit rate 0.02% among 320,000; active means potentiation above 80%; inconclusive means 30% to 80%; inactive means below 30%; further: 0% is about no effect
#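 Cells expressing TRPV1 were dye-loaded with Fluo-8 and read kinetically: 10 s baseline, 3 min after compound (agonist portion), then 2 min after EC20 capsaicin (allosteric enhancer portion). Calcium-bound dye fluorescence at 480/520 nm.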
# Sfp inh: qHTS Assay for Inhibitors of Bacillus subtilis Sfp phosphopantetheinyl transferase (PPTase) | Biochemical Sfp PPTase activity, qHTS | hit rate 3.5% among 310,000 | Potency, µM, for the others: max response, negative = inhibition, actives largely listed as inhibitors | AID 1490, 2009; active means well fitted inhibition curve with a large enough effect; inconclusive means small, poorly fitted or top-dose-only effect, or another doubt; inactive means no such curve, though single readings can be large or run the other way;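 further: the enzyme is Sfp with the accession as filed and its product quenches rhodamine fluorescence; potency means the concentration at half of the fitted maximal effect; 0% = enzyme reaction without inhibitor and -100% = no enzyme wells; top concentration of the series not given in the record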
#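 Fluorescence-quenching assay with 15 nM Sfp, 5 uM rhodamine-CoA and 12.5 uM BHQ-2-labelled ybbR peptide in pH 7.6 Hepes/MgCl2 buffer. Enzyme was pre-incubated with compound for 15 min at room temperature. Rate was taken from the 30-min fluorescence change (525/598 nm).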
# Six1-Eya2 blk: qHTS Assay for Inhibitors of the Six1/Eya2 Interaction | Homeobox protein SIX1 (Homo sapiens) + Protein phosphatase EYA2 (Homo sapiens), … | AlphaScreen GST-Six1/His-Eya2 binding, biochemical; stronger effect = lower value; control for the full effect not named in the record | activity change, % (test concentration not listed) | hit rate 0.56% among 360,000; in the data active = activity change below about -65%; inconclusive = about -30% to -65%; inactive = above about -30%; further: on the % scale 0 is the no-effect control and ±100 the full control effect; compound concentration not given in the record
#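 GST-Six1 + His-Eya2 (5X stock: 250/500 nM); Tris pH 8.0, 300 mM NaCl, 0.05% BSA, 0.02% Tween 20; GSH donor/Ni acceptor beads; 1 h 37 °C dark; AlphaScreen readout.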
# An asterisk follows results filed as active; ? = inconclusive; . = not tested or not shown; & = joins results of further samples; [ ] = remark or other dose.
Molecule	D2 agonist	PINK1 modulator	D2 PAM	CtBP-E1A inh	TRPV1 PAM	Sfp inh	Six1-Eya2 blk
N#Cc1ccccc1S(=O)(=O)Nc1ccc2c(c1)OCCO2	-1.0	-0.3%	0	4	4	10%	1
CC(C)CC1C(C#N)=C(N)Oc2n[nH]c(-c3cccs3)c21 (centres undefined)	-2.3	10%[38.3 µM]	-7	28	14	10%	19
COc1cc(NC(=S)Nc2ncccc2C)cc(OC)c1OC	-1.0	-0.4%	-1	-1	5	50µM*	-8
CCc1cc(C(=O)NCC2CCCO2)sc1C (centres undefined)	-2.9	-0.2%	-11	6	-11	1%	-1
Clc1ccc(CSc2nnc3c(n2)[nH]c2ccccc23)cc1	-4.4	3.4%	2	.	20	24%	-15
CCCC(c1c(C)n(C)n(-c2ccccc2)c1=O)c1c(C)n(C)n(-c2ccccc2)c1=O	-1.7	-2.3%	-3	0	-6	24%	6
COc1ccc(C(=O)N2CCN(C(=O)C3COc4ccccc4O3)CC2)cc1OC (centres undefined)	-1.3	-0.9%	-10	1	-28	-7%	0
CN(CC(=O)Nc1ccccc1Cl)C(=O)COC(=O)CN1C(=O)NC2(CCCC2)C1=O	-4.0	-0.1%	-16	0	7	17%	0
Cc1ccc(-c2nnc(-c3cccnc3)o2)cc1	2.3	-0.7%	-13	-15	-13	19%	6
CC(=O)N1CCN(CCN=CC2=C(O)CC(c3cccs3)CC2=O)CC1 (centres undefined)	-1.2	-1.6%	1	0	-4	-1%	4
COc1ccc(NC(=O)c2cc3cc(C)ccc3n2C)c(OC)c1	1.3	2.9%	-6	4	-9	9%	2
Cc1cccc(NC(=O)CSc2nc3c(c(=O)[nH]2)CCC3)c1C	0.7	-1.4%	-6	-3	-4	2%	2
O=[N+]([O-])c1ccc(CSc2nnc(-c3cnccn3)o2)cc1	-3.9	-0.7%	-7	6	?	10%	-4
O=C(Nc1cccc(F)c1)c1ccc(Cn2cc([N+](=O)[O-])cn2)o1	-1.7	1.0%	-17	7	-31	-4%	1
Cc1ccc(C(=O)C2=C(O)C(=O)N(CCCN(C)C)C23C(=O)N(C)c2ccccc23)o1 (centres undefined)	-1.7	.	5	9	?	-17%	2
Cc1ccc(NC(=S)N/N=C/c2cccn2Cc2ccccc2F)cc1	-1.4	10%	-9	-13	-12	-7%	-15
O=C(/C=C/c1c(F)cccc1Cl)Nc1nn[nH]n1	-0.8	2.1%	-1	-5	5	6%	-15
O=S(=O)(CCSc1ccccn1)c1nc2ccccc2s1	-4.4	?	-11	0	-24	-14%	27
O=c1cc(N2CCC(Cc3ccccc3)CC2)[nH]c(=O)n1C1CCCCC1	-2.0	9.5%	-16	5	2	19%	6
CC(C)[C@H](CN1CCC[C@H]1CN1C(N)=NC[C@@H]1Cc1ccccc1)N1C[C@@H](Cc2ccccc2)N(CCc2ccc(Cl)c(Cl)c2)C1=N	-11	0.6%	-27	-11	.	.	12
CCOc1cc(N2CCOCC2)c(OCC)cc1NC(=O)CSc1nccc(C)n1	-0.6	1.2%	2	-16	10	11%	-4
CCOCCCNC(=O)C1CCCCN1S(=O)(=O)c1ccc(F)cc1 (centres undefined)	-1.7	4.1%[38.3 µM]	-3	8	5	7%	7
COc1ccc2c(CC(=O)OCC(=O)c3ccccc3OC)coc2c1	0.4	0.6%	-2	5	1	12%	10
CCOC(=O)COc1nc(-c2ccco2)cc(-c2ccco2)c1C#N	10.0	1.5%	12	22	-33	-5%	18
Cc1ccc(C)c(CN2CCN(c3ncccn3)CC2)c1	53*	9.9%	5	-6	?	-17%	9
Cc1c(C(=O)/C=C/N(C)C)nnn1-c1ccc(Cl)c(Cl)c1	-5.6	3.5%	-17	.	5	4%	-1
CNCCOCC(O)CSc1ccccc1 (centres undefined)	-2.1	0.0%	-11	3	2	12%	-1
CCSCCOC(=O)C1=C(C)NC(=O)NC1c1cc(OC)ccc1OC (centres undefined)	-2.4	0.3%	?	-1	-5	12%	-4
Cc1onc(-c2ccccc2Cl)c1C(=O)OCC(=O)c1ccc2c(c1)OCCO2	-1.5	-1.0%	1	3	10	-7%	-1
COc1ccc(OCC(O)CNS(=O)(=O)c2ccc(C)cc2)cc1 (centres undefined)	-10	-0.6%	4	.	2	0%	5
COc1ccc(C2CC(c3ccc4ccccc4c3)=NN2C(=O)CNC2CCCCC2)cc1 (centres undefined)	-8.3	-0.4%	-8	.	-7	-64%	-9
Cn1c(=O)[nH]c(=O)c2c1nc(N1CCC(Cc3ccccc3)CC1)n2Cc1ccccc1	-2.9	-0.1%	-8	-1	3	-28%	-2
CSCCC(=O)N1C(C)CCCC1C(=O)O (centres undefined)	-0.1	-1.3%	29	2	-1	7%	1
CCN1CCN(c2ccc(NC(=O)c3cccc(F)c3)cc2Cl)CC1	-3.3	4.9%	-11	2	-6	17%	2
COc1ccc(NC(=O)CN2C(=O)C(c3ccccc3)=NC23CCCCCC3)cc1OC	-2.9	4.2%	-21	-1	3	3%	-9
CC(=O)NS(=O)(=O)c1ccc(NC(=O)C2C3C=CC(C3)C2C(=O)O)cc1 (centres undefined)	2.1	3.3%	9	0	8	3%	-7
CCC(C(=O)OC)n1cnc2scc(-c3ccc(C)cc3)c2c1=O (centres undefined)	-6.0	0.2%	-3	7	2	6%	-6
CC(C)c1ccc(NC2CCCN(C(=O)c3cc(C(C)C)nc(N)n3)C2)cc1 (centres undefined)	-2.2	-0.8%	-9	-6	-16	7%	-5
Cc1ccc(S(=O)(=O)N(CC(=O)NC2CCCC2)c2cccc(C)c2)cc1	-6.5	-0.4%	17	4	-16	-22%	4
CC(C)(C)c1cc(N)on1	-0.6	1.3%	-3	0	22	1%	11
COCCNC(=O)C(c1ccc(C)o1)N(Cc1cccs1)C(=O)c1snc(C(N)=O)c1N (centres undefined)	1.3	0.9%[38.3 µM]	-7	4	?	-2%	-2
OC[C@@H]1CN(Cc2ccncc2)C[C@H](n2cnc3c(N4CCCC4)ncnc32)O1	-2.3	-0.4%	-1	5	.	.	-3
O=C(NCc1ccc(Cl)cc1)c1ccc(CNc2c(N3CCOCC3)c(=O)c2=O)cc1	-1.7	-0.1%	-15	-19	-2	3%	-24
COc1ccc(C(CC(=O)N2CCCC(C)C2)c2c(OC)cc(OC)c3c(-c4ccccc4)cc(=O)oc23)cc1 (centres undefined)	-1.0	0.2%	-20	-4	21	-14%	-16
S=c1[nH]nc(-c2ccc(Cl)cc2)n1-c1ccc2c(c1)OCCO2	0.8	-1.5%	-5	-6	-6	?	1
CC1(C)C(=O)NCCN1C(=O)CCC(=O)O	0.1	.	-20	5	3	4%	8
CCc1nnc(NS(=O)(=O)c2ccc(N3C(=O)c4ccc(C(=O)O)cc4C3=O)cc2)s1	-2.7	1.2%	-15	8	-2	13%	1
CC(C)(C)c1ccc(/C=C/C(=O)Nc2ccncc2)cc1	14	6.3%	?	1	-4	9%	3

# In a second layout: 3 of the compounds above.
Cc1ccc(-c2nnc(-c3cccnc3)o2)cc1
  D2 agonist: 2.3
  PINK1 modulator: -0.7%
  D2 PAM: -13
  CtBP-E1A inh: -15
  TRPV1 PAM: -13
  Sfp inh: 19%
  Six1-Eya2 blk: 6
CSCCC(=O)N1C(C)CCCC1C(=O)O (centres undefined)
  D2 agonist: -0.1
  PINK1 modulator: -1.3%
  D2 PAM: 29
  CtBP-E1A inh: 2
  TRPV1 PAM: -1
  Sfp inh: 7%
  Six1-Eya2 blk: 1
COc1ccc(C(CC(=O)N2CCCC(C)C2)c2c(OC)cc(OC)c3c(-c4ccccc4)cc(=O)oc23)cc1 (centres undefined)
  D2 agonist: -1.0
  PINK1 modulator: 0.2%
  D2 PAM: -20
  CtBP-E1A inh: -4
  TRPV1 PAM: 21
  Sfp inh: -14%
  Six1-Eya2 blk: -16

# (next part)
Molecule	D2 agonist	PINK1 modulator	D2 PAM	CtBP-E1A inh	TRPV1 PAM	Sfp inh	Six1-Eya2 blk
COCCn1c(SCC(=O)N2CCOCC2)nc2ccccc2c1=O	-0.5	1.9%	-4	-9	18	16%	1
CC(=O)c1cn(CCC(C)C)c(=O)[nH]c1=O	-4.5	1.7%	0	0	29	24%	-1
CS(=O)(=O)Nc1ccccc1C(=O)Nc1ccccc1C(=O)N1CCCC1	-0.9	4.1%	-7	2	10	12%	4
COC(CNC(=O)c1ccc2c(c1)ncn2-c1ccc(F)c(F)c1)OC	0.2	2.5%	-6	21	-5	4%	2
O=C(COc1ccccc1[N+](=O)[O-])Nc1ccccc1N1CCCCC1	-1.2	4.2%	-9	-7	-9	14%	-6
CN(CC(=O)Nc1cccc(S(=O)(=O)N(C)C)c1)Cc1ccccc1	-1.4	1.1%	-8	5	7	14%	-6
COc1ccc(CCC(C)NCc2cc(OC)cc(OC)c2)cc1 (centres undefined)	-4.1	1.1%	-4	7	8	-2%	-1
COc1ccc(N=C(C)C2=C(O)CSC2=O)cc1	0.9	.	3	-13	2	?	-13
OCCN1CCN(CC/C=C2/c3ccccc3CSc3ccccc32)CC1	-7.1	1.3%	-15	.	.	.	0
O=C(O)COc1ccc(/C=N/NC(=O)COc2nsnc2N2CCOCC2)cc1	-1.8	0.1%	-3	3	-12	-13%	2
Cc1ncc(CN2CCCC(C(=O)Nc3ccc(-c4ccco4)cc3)C2)cn1 (centres undefined)	0.2	2.0%	-10	.	5	32µM*	-7
Cn1nc(Oc2nc(N3CCOCC3)nc(N3CCOCC3)n2)ccc1=O	-1.6	3.4%[38.3 µM]	-9	6	5	14%	3
Cc1csc(SCC(=O)Nc2ccc3c(c2)OCCO3)n1	-5.1	-0.9%	-5	9	16	-15%	-5
CCOc1nc(NC(=O)NS(=O)(=O)Oc2cccc(Cl)c2)nc(-c2ccccc2)n1	-0.2	-1.5%&14%	-6	19	-1	1%	5
Cc1ccc(CNC(=O)C(C)C2Sc3ccccc3NC2=O)cc1 (centres undefined)	-1.5	0.7%	-1	-15	-16	2%	5

# The order is random. About 3.7% of those tested had a hit in this group.
